# VACV Venus inh – inhibitors of vaccinia virus (Venus reporter); Vaccinia virus Venus reporter expression, fluorescence; Potency, µM (doses to about 36.5 µM), for the others: at the top dose activity change, negative = inhibition, most hits filed as inhibitors; 330,000 compounds, 0.46% hits; AID 720580; active means well fitted inhibition curve with a large enough effect; inconclusive means small, poorly fitted or top-dose-only effect; inactive means no such curve, though single readings can be large or run the other way; tested in A549 cells; note: nearly all actives have a fitted effect of over 30% in size; inactives centre near -10
# Vaccinia mCherry – inhibitors of vaccinia virus infection (mCherry reporter signal) | Vaccinia virus mCherry reporter infection, fluorescence; about a quarter of the inactives have no number | Potency, µM (doses to about 36.5 µM), for inactives: top-dose activity change, negative = inhibition, usual class: inhibitors | 310,000 compounds, 0.63% hits | AID 720579; active = well fitted inhibition curve with a large enough effect; inconclusive = small, poorly fitted or top-dose-only effect; inactive = no such curve, though single readings can be large or run the other way; tested in A549 cells; note: nearly all actives have a fitted effect of over 35% in size; inactives centre near -10
# * = called active by the depositor; i = inactive; ? = inconclusive; / = no result given; & = joins results of further samples; [ ] = dose if it differs, or a comment. % is set by controls: 0 for no effect and ±100 for the full control effect; potency is the fitted concentration of half-maximal effect.
CCNC(=S)N(C)CCc1cc2c(c(OC)c1C=C1C(=O)N(C)C(=O)N(C)C1=O)OCO2
  VACV Venus inh = -12%
  Vaccinia mCherry = -14%

COc1ccc(-c2noc(CCC(=O)N3CCN(c4cccc(Cl)c4)CC3)n2)cc1
  VACV Venus inh = -14%
  Vaccinia mCherry = i

Cc1ccc(/C=C/C(=O)Nc2nc3ccccc3[nH]2)cc1
  VACV Venus inh = 3%
  Vaccinia mCherry = -5%

Cc1ccc(C(=O)NNC(=O)c2ccc(S(=O)(=O)N3CCCCC3)cc2)cc1
  VACV Venus inh = -10%
  Vaccinia mCherry = i

Cc1ccc(-n2nc(C(=O)N3CCN(c4ccccc4)CC3)c(=O)n(C)c2=O)cc1
  VACV Venus inh = 1%
  Vaccinia mCherry = -7%

CC(C)Cc1nnc(NS(C)(=O)=O)s1
  VACV Venus inh = -3%
  Vaccinia mCherry = /

CSc1cccc(NC(=O)c2cc(S(=O)(=O)N3CCc4ccccc43)cn2C)c1
  VACV Venus inh = -29%
  Vaccinia mCherry = -26%

O=S(=O)(NCC(c1ccco1)N1CCN(c2ccc(F)cc2)CC1)c1ccc(F)cc1 (stereo not given)
  VACV Venus inh = -21%
  Vaccinia mCherry = i

Cc1ccc2c(CN3CCC(C)CC3)cc(=O)oc2c1
  VACV Venus inh = -13%
  Vaccinia mCherry = -8%

CCCCN(C(=O)C1CC(=O)N(c2ccc(CC)cc2)C1)c1c(N)n(CCC)c(=O)[nH]c1=O (stereo not given)
  VACV Venus inh = -10%
  Vaccinia mCherry = -11%

COc1ccc(/C=C2/NC(=O)N(Cc3ccccc3F)C2=O)cc1OC
  VACV Venus inh = -21%
  Vaccinia mCherry = i

O=C(Nc1ccc(F)c(Cl)c1)N1CCC(CN2CCc3ccccc3C2)CC1
  VACV Venus inh = -9%
  Vaccinia mCherry = -14%

CCOC(=O)C1(C)CCN1C(=O)c1ccc(OC)cc1OC (stereo not given)
  VACV Venus inh = -4%
  Vaccinia mCherry = 6%

Cc1nn2c(N3CCN(C(=O)c4ccco4)CC3)cc(C(C)(C)C)nc2c1-c1ccccc1
  VACV Venus inh = 10µM*
  Vaccinia mCherry = /

COCCCNC(=O)CCC(=O)N1Cc2cccc(OC)c2Oc2ncccc21
  VACV Venus inh = -2%
  Vaccinia mCherry = -6%

S=C1NCCOCCOCCOCCOCCNC(=S)NCCOCCOCCOCCOCCN1
  VACV Venus inh = 4%
  Vaccinia mCherry = -6%

Cc1ccccc1-c1nnc(SCC(=O)NC2CCCC2)o1
  VACV Venus inh = -4%
  Vaccinia mCherry = -8%

O=C(NCCO)c1cc2c([nH]c3ccccc32)c(-c2ccc(F)cc2)n1
  VACV Venus inh = -13%
  Vaccinia mCherry = -7%

C=CCNC(=O)Cn1nc(-c2ccccc2)ccc1=O
  VACV Venus inh = 0%
  Vaccinia mCherry = 6%

O=C(c1ccc2c(c1)N(Cc1ccccc1F)C(=O)c1ccccc1S2=O)N1CCCCC1 (stereo not given)
  VACV Venus inh = -11%
  Vaccinia mCherry = -2%

O=C(CNc1ccc(F)cc1)N/N=C/C1CC=CCC1 (stereo not given)
  VACV Venus inh = -4%
  Vaccinia mCherry = -13%

Cc1nnc(N2CCCC(C(=O)NCc3ccccc3F)C2)c2nn(-c3ccc(Cl)cc3)c(C)c12 (stereo not given)
  VACV Venus inh = -13%
  Vaccinia mCherry = -11%

COc1ccc(CC(=O)Nc2nc3c(s2)CCCC3)cc1
  VACV Venus inh = -5%
  Vaccinia mCherry = -7%

Cc1cc(NC(=O)CSc2nc(=O)n(CCN(C)C)c3c2CCCC3)no1
  VACV Venus inh = -9%
  Vaccinia mCherry = 0%

COc1ccc(C(=O)N2CCOC2CNC(=O)C(=O)NCc2ccccc2)cc1 (stereo not given)
  VACV Venus inh = ?
  Vaccinia mCherry = i

Cc1ccc(C)c(Cn2c(=O)n(CCCCC(=O)NCc3ccc4c(c3)OCO4)c(=O)c3ccccc32)c1
  VACV Venus inh = -28%
  Vaccinia mCherry = ?

CCOC(=O)C1=C(c2ccccc2)OC(N)=C(C#N)C1c1ccc(Br)s1 (stereo not given)
  VACV Venus inh = -2%
  Vaccinia mCherry = -2%

Cc1ccc2ccccc2[n+]1[O-]
  VACV Venus inh = 8%
  Vaccinia mCherry = 35%[activator]

CCOc1cc2[nH]c(=O)n(Cc3ccc(C(=O)NCCCN4CCC(C)CC4)cc3)c(=O)c2cc1OCC
  VACV Venus inh = -9%
  Vaccinia mCherry = -13%

O=C(CSc1ccc(F)cc1)N1CCC(c2nc3ccccc3s2)CC1
  VACV Venus inh = ?
  Vaccinia mCherry = ?

O=C(CNC(=S)NC(=O)c1ccc(Br)o1)c1ccccc1
  VACV Venus inh = -13%
  Vaccinia mCherry = i

COC(=O)c1ccc(NC(=O)CC2C(=O)N(c3ccc(C)cc3)C(=O)N2CC(C)C)cc1 (stereo not given)
  VACV Venus inh = -9%
  Vaccinia mCherry = -3%

CC(C)CNC(=O)C1(C)CCCN1C(=O)c1cncc(Br)c1 (stereo not given)
  VACV Venus inh = 2%
  Vaccinia mCherry = i

Cc1ccccc1NC(=O)c1cccc(NC(=O)CCC(=O)O)c1
  VACV Venus inh = -1%
  Vaccinia mCherry = 10%

O=C(c1cc2ccccc2[nH]1)N1CCOCC1
  VACV Venus inh = -7%
  Vaccinia mCherry = -3%

CCC(C(=O)c1ccc(O)cc1)c1ccccc1 (stereo not given)
  VACV Venus inh = -26%
  Vaccinia mCherry = -1%

Cc1cc(C)n(CCCNC(=O)C2CC(=O)N(Cc3ccccc3)C2)n1 (stereo not given)
  VACV Venus inh = -12%
  Vaccinia mCherry = -22%

COc1ccccc1NS(=O)(=O)c1cc(C(=O)NCCCN2CCCC2=O)ccc1C
  VACV Venus inh = -5%
  Vaccinia mCherry = -14%

O=C(NCCc1ccc(Cl)cc1)c1cccn1-c1nnc(N2CCCCC2)s1
  VACV Venus inh = -11%
  Vaccinia mCherry = -16%

Nc1ccccc1C(=O)NCc1ccc(Cl)cc1
  VACV Venus inh = -13%
  Vaccinia mCherry = -18%

Nc1cc(-c2ccccc2)nn1S(=O)(=O)c1ccc(Br)cc1
  VACV Venus inh = -22%
  Vaccinia mCherry = -19%

COc1cc2c(cc1OC)CN(CC(=O)Nc1ccc(Cl)cc1Cl)CC2
  VACV Venus inh = -7%
  Vaccinia mCherry = -15%

CC(CC(=O)NNC(=O)c1cccc(Cl)c1)c1ccccc1 (stereo not given)
  VACV Venus inh = -10%
  Vaccinia mCherry = -6%

COc1ccc(-c2nnc3n2N(C(C)=O)C(c2ccc(Cl)c(Cl)c2)=C(C(C)=O)S3)cc1
  VACV Venus inh = ?
  Vaccinia mCherry = ?

CC1(C(=O)NS(=O)(=O)c2ccc(Cl)cc2)CCN1C(=O)Cc1ccccc1 (stereo not given)
  VACV Venus inh = 6%
  Vaccinia mCherry = i

NS(=O)(=O)c1ccc(CCNc2nc3c(-c4cccc(F)c4)nnn3c3ccc(Cl)cc23)cc1
  VACV Venus inh = -19%
  Vaccinia mCherry = -25%

O=C(CSc1cccc[n+]1[O-])Nc1cc(S(=O)(=O)N2CCOCC2)ccc1Cl
  VACV Venus inh = -4%
  Vaccinia mCherry = -15%

COCC1CCCC1OS(N)(=O)=O (stereo not given)
  VACV Venus inh = -6%
  Vaccinia mCherry = -12%

O=C(NC1CCN(S(=O)(=O)c2ccccc2)CC1)c1cccc(F)c1
  VACV Venus inh = -27%
  Vaccinia mCherry = -6%

Cc1cs/c(=N\N=C\c2ccccc2)n1Cc1ccco1
  VACV Venus inh = -18%
  Vaccinia mCherry = -4%

CC1CC=C(c2ccccc2)C(=S)N1 (stereo not given)
  VACV Venus inh = -6%[7.34 µM]
  Vaccinia mCherry = -3%[7.34 µM]

CC1(C(=O)NCc2cccc(C(F)(F)F)c2)CCN1Cc1ccc2ccccc2c1 (stereo not given)
  VACV Venus inh = -9%
  Vaccinia mCherry = i

Cc1ccc(N=Cc2sccc2C)cc1C
  VACV Venus inh = -4%
  Vaccinia mCherry = -27%

CCOc1ccc(C(=O)C[n+]2cccc3cc(C)ccc32)cc1
  VACV Venus inh = 4%
  Vaccinia mCherry = i

CCc1nc2ccc(C(=O)NCCN3CCOCC3)cn2c1N(CCC(C)C)CCN(C)C
  VACV Venus inh = -1%
  Vaccinia mCherry = 9%

COc1cc(C)ccc1S(=O)(=O)n1nc(C)cc1C
  VACV Venus inh = -1%
  Vaccinia mCherry = -2%

CC(C)(C)c1ccc(S(=O)(=O)N2CCN(C3CCCC3)CC2)cc1
  VACV Venus inh = 9%
  Vaccinia mCherry = ?

COCCn1c(SCC(=O)NC2CCCC2)nc2c(c1=O)SCC2
  VACV Venus inh = -12%
  Vaccinia mCherry = -7%

COc1ccc(OC)c(NC(=O)CN2C(=O)CC(C)Sc3ccccc32)c1 (stereo not given)
  VACV Venus inh = -4%
  Vaccinia mCherry = 3%

CCN(CC)CC(=O)N1c2ccccc2CCc2ccc(NC(=O)c3cc(OC)c(OC)c(OC)c3)cc21
  VACV Venus inh = -2%
  Vaccinia mCherry = -6%

# More entries:
# Order of results – VACV Venus inh	Vaccinia mCherry
> Fc1ccccc1OCCCCn1cncn1
  -15%	-16%
> CN(C(=O)C(Cl)Cl)C1CC2C=CC1C2 (stereo not given)
  -15%	?
> COc1cccc2cc(-c3nc(Nc4cccc(C)c4C)sc3C)c(=O)oc12
  -10%	0%
> O=C(O)c1ccc(CSc2nc3ccc(N4C(=O)C5C6C=CC(C6)C5C4=O)cc3s2)cc1 (stereo not given)
  -2%	-21%
> O=C(CN1C(=O)CSc2ccc(S(=O)(=O)N3CCCC3)cc21)NCc1ccc(F)cc1Cl
  -8%	-7%
> Cc1c(C(=O)NCC2COc3ccccc3O2)oc2ccc(S(=O)(=O)N(C)C3CCCCC3)cc12 (stereo not given)
  -20%	-2%
> CCN(CC(=O)Nc1ccccc1C(F)(F)F)C(=O)CCc1ccccc1
  -3%	-1%
> O=S(=O)(NC1CCCCCCC1)c1ccccc1F
  -2%	-5%
> CN1CCN(C(=O)C2=NOC3(C2)C(=O)Nc2ccccc23)CC1 (stereo not given)
  -8%	-12%
> COC(=O)c1c(NC(=O)Cc2coc3cc(C)cc(C)c23)sc2c1CCC2
  -10%	-4%
> N#Cc1ccc(C(=O)CSc2nnc(-c3ccc(C(F)(F)F)cn3)s2)cc1
  -11%	i
> CCOC(=O)N1CCC(NC(=O)C2CCC(CNS(=O)(=O)c3ccc(OC)cc3)CC2)CC1 (stereo not given)
  -8%	/
> Cc1noc2ncnc(Oc3cc(Cl)ccc3Cl)c12
  -5%	i
> COc1ccc(C(CNC(=O)CCNC(=O)c2ccc(Br)cc2)N2CCOCC2)cc1 (stereo not given)
  -5%	-15%
> COCCn1ccc(O)c(Cc2ccccc2)c1=O
  -15%	/
> COc1ccc2c(CC(=O)NNC(=O)c3ccc(C)cc3)coc2c1
  -11%	i
> Cc1cccc(NC(=O)c2oc3ccc(S(=O)(=O)N(C)C4CCCCC4)cc3c2C)c1C
  -16%	-6%
> O=C(Nc1ccc([N+](=O)[O-])cc1)Nc1ccc2[nH]c(=O)[nH]c2c1
  -7%	8%
> COc1cc(-c2cc3nc(NCCc4ccc(S(N)(=O)=O)cc4)ccn3n2)cc(OC)c1OC
  4%	-17%
> Cc1ccc(-c2[nH]ncc2C(=O)c2ccccc2C)c(O)c1
  -8%	-10%
> COc1ccc2oc(C(=O)OCC(=O)NC(C)c3ccccc3)c(C)c2c1 (stereo not given)
  -20%	-12%
> Nc1cc(-c2ccc(Br)cc2)nn1S(=O)(=O)c1ccccc1
  -13%	-14%
> CS(=O)(=O)c1cccc(NC(=O)c2ccc(Cl)c(Cl)c2)c1
  6%	-10%
> C=CCn1c(SCC(=O)Nc2c(C)cccc2C)nnc1-c1ccncc1
  -9%	-12%[1.46 µM]
> CCOCc1nc(C)c(Cl)c(NS(=O)(=O)c2ccc(N)cc2)n1
  -12%	-1%[1.46 µM]
> CCOC(=O)C(/C=C(\C#N)C(=O)OCC)=C(/N)N1CCN(c2c(C)cccc2C)CC1
  -14%	/
> CCCCNC(=O)C1(C)CCCCN1C(=O)c1ccc(C#N)cc1 (stereo not given)
  7%	10%
> COc1ccc(CNC(=O)C2CCCN(S(=O)(=O)c3cccc4nsnc34)C2)cc1 (stereo not given)
  -11%&1%	-10%&-9%
> Cc1nn(C(=O)c2cc3sccc3[nH]2)c(C)c1C
  -2%	-14%
> Cc1ccc(C)c(NC(=O)c2ccc3nc(CCc4ccccc4)oc3c2)c1
  6%	-9%
> CN(Cc1ccccc1)C(=O)Cn1nnc(-c2ccccc2)c1COc1ccc2ccccc2c1
  -23%	?
> CCOC(=O)c1cc(=O)nc(N)s1
  -2%	i

# High-throughput results from PubChem BioAssay.
